# Screens deposited in PubChem BioAssay by several laboratories.
# Calb FLC: C. albicans growth modulation with fluconazole. C. albicans CaCi-2 (fluconazole-resistant clinical isolate) + fluconazole, Alamar Blue growth, 48 h. growth inhibition, % (concentration not given with the values). 300,000 tested, 0.57% active. AID 1979;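 active = most replicates above 75%; inconclusive = exactly half above 75%; inactive = most below 75%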;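 also: all wells also contain fluconazole at 8 µg/ml as a sub-toxic cotreatment; 0% = median of DMSO wells and 100% = median of geldanamycin control wells; wells of about 8 µL received 7.5 nL stock; the first replicate is given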
# T cruzi inh: T. cruzi replication inhibition; 300,000 tested, 1.4% active; T. cruzi beta-gal in NIH3T3, luminescence, 90 h; inhibition, % (test concentration not listed);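 active = mean inhibition across valid replicates above about 55%, limit read from the data; inconclusive = mean below that limit but half or more replicates reach it; inactive = mean below it, under half of replicates reach it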;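 also: signal also drops with host cell toxicity which is not excluded here; 0% = plate median of DMSO wells and 100% = zero luminescence signal; higher percent means less beta-gal luminescence so fewer parasites; stock transfer was 50 nL into about 50 µL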
# UCH37 DUB inh: inhibitors of human deubiquitinating enzyme UCH37; purified proteasome/UCH37, Ub-AMC cleavage fluorescence; Q9Y5K5; inhibition, % (no concentration beside the values); 330,000 tested, 0.33% active; AID 588478;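 active = mean of two replicates above 20%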;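 also: 0% = compound-free wells with enzyme and 100% = wells lacking proteasome; stock transfer was 100 nL into about 20 µL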
# Target sequence (Q9Y5K5 whole entry, looked up): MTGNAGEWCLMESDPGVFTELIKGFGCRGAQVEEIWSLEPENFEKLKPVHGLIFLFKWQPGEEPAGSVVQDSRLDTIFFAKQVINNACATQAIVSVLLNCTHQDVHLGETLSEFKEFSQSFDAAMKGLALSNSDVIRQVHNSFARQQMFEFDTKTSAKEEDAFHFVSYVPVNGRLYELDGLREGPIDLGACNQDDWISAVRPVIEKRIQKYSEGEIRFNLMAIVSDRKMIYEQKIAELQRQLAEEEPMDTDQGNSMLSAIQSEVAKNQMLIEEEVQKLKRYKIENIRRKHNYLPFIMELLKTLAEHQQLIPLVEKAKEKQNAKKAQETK
#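 Material: human UCH37 enzyme supplied as purified proteasome complex / Amount: 0.15 nM proteasome as dispensed / Buffer or medium: pH 7.4 Tris-HCl (50 mM) with ovalbumin, ATP-MgCl2, DTT / Times: preincubation 30 min, reaction 25 min, room temperature / Technique: AMC fluorescence from Ub-AMC cleavage, excitation 355 nm, emission 460 nm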
# Bfl-1 A1 inh: inhibitors of the anti-apoptotic protein A1, read as caspase activation; MEF A1-2A-BIM cells, Caspase-Glo 3/7 luminescence, 3 h; percent of clofoctol response, vehicle zero; caspase activation, % (test concentration not listed); 330,000 tested, 0.066% active; AID 2462;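 active = over half of replicate activation scores above 10%, or exactly half above 10 with the replicate mean above 10; inconclusive = replicate mean below 10 yet half the replicates above 10; inactive = over half of replicates below 10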;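 also: wells of about 30 µL received 50 nL stock; many hits fall short of the cut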
# Beta apoptosis: blocks beta cell apoptosis | INS-1E cytokine-induced death, ATP luminescence, 48 h; percent of positive-control rescue, neutral wells zero | protection from apoptosis, % (concentration not given with the values) | 300,000 tested, 0.8% active;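 active = all replicates at 75% or more, or half of them and the mean; inconclusive = half reach 75% but not the mean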;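 also: 0% = cytokine-treated negative control wells and 100% = positive control rescue; higher means more ATP so stronger rescue from cytokine killing; wells of about 40 µL received 100 nL stock; the first replicate is given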
# RanGTP-Imp inh: disruptors of Ran-importin-beta complex formation – biochemical, FRET, CFP-Ran, YFP-importin-beta, homogeneous, primary screen. AID 2216. cell-free CFP-Ran/YFP-importin-beta FRET ratio. inhibition, % (test concentration not listed). 300,000 tested, 1.1% active;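 active = most replicates above 15%; inconclusive = exactly half above 15%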;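 also: 0% = DMSO wells and 100% = Ran loaded with GDP instead of GTP; wells of about 40 µL received 100 nL stock; the first replicate is given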
# LANA-H2A inh: blocks KSHV LANA binding to histone H2A/H2B. cell-free LANA-H2A/H2B peptide, fluorescence polarization. AID 2629. 320,000 tested, 0.6% active. inhibition, % (no concentration beside the values); in the data active = inhibition mostly above about 10%, no sharp cut-off; inactive = mostly below about 6.7%;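 also: stock transfer was 7.5 nL into about 10 µL; 0% = median of vehicle wells and 100% = median of positive control wells; one replicate is shown; the record names a cut of 25% in any replicate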
# B2AR ag: human beta-2 adrenergic receptor agonism by FAP. response, % (test concentration not listed). Am2.2-beta2AR cells, FAP receptor internalization, flow cytometry; reference of the scale not given here. 340,000 tested, 0.43% active. AID 504454;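 active = response above a set limit, near 3 SD of response in nonfluorescent compounds, cut at about 42% in these data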;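 also: stock transfer was 100 nL into about 11 µL; a reference agonist was the positive control; negative values mostly stem from fluorescent compounds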
# Target sequence (P07550 whole entry, looked up): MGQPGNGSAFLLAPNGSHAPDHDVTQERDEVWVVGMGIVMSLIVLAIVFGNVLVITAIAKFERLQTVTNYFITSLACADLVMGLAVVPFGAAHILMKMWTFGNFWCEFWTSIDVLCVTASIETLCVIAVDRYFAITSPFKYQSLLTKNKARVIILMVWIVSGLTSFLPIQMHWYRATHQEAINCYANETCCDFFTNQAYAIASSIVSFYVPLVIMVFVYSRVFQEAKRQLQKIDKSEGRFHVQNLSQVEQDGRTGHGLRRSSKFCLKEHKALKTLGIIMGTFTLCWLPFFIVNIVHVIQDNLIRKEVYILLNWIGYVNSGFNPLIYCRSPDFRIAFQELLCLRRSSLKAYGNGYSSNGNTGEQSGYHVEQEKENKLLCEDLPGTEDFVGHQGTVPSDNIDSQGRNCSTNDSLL
# The depositor's hits bear a star; i = inactive; u = inconclusive; x = no result given; & = joins results of further samples. An unsorted share of the library. Share with any hit: about 4.3%.
canonical_smiles,Beta apoptosis,B2AR ag,Bfl-1 A1 inh,T cruzi inh,LANA-H2A inh,Calb FLC,RanGTP-Imp inh,UCH37 DUB inh
CC(=O)c1cccc(N(CC(=O)Nc2ccccc2C(=O)N2CCCC2)S(C)(=O)=O)c1,-4.0,-11.0,0.5,6.2,-4.4,2.0,-0.2,4.6
Cc1nn(Cc2c(F)c(F)c(F)c(F)c2F)c(C)c1NC(=O)c1nn(C)c(C)c1Br,3.1,4.9,-0.1,14.4,-3.8,-9.3,-0.2,-1.4
CCOC(CNC(=O)Cc1c(C)nc2c(-c3ccccc3)c(C)nn2c1C)OCC,0.4,2.8,0.4,-19.0,1.2,-12.7,u,2.6
CC1=C(C(=O)NCc2ccccc2)C(c2cccs2)n2ncnc2N1 (configuration not stated),1.1,4.5,0.3,-6.0,-5.2,-6.7,-0.4,3.4
Cc1nc(CCNS(=O)(=O)c2cccs2)cs1,-15.2,-2.5,0.9,-7.1,9.3,-2.6,3.3,1.8
CCc1ccc(-c2csc(NC(=O)c3cccnc3)n2)cc1,6.3,-2.2,0.6,-50.8,2.1,25.0,-3.4,1.0
Cc1cccc2c(=O)n3c(nc12)CCCCC3,-3.3,2.6,0.5,-7.9,-13.6,-7.7,-2.9,6.2
O=C(CSc1nnnn1-c1ccccc1)Nc1nc(-c2ccccc2)ns1,-0.8,-1.1,-0.3,-6.0,-12.1,0.0,0.1,4.1
CCc1ccc(-c2cn3nc(C)c(C)nc3n2)cc1,-9.9,3.2,-4.3,-13.0,2.3,-5.8,106.7*,i
COC(=O)CSc1nc(-c2ccccc2)nc2ccccc12,-2.5,6.3,-0.2,-16.4,3.3,-0.5,2.1,3.1
Cc1ccc2nc(N3CCN(c4ccccc4F)CC3)c(C=O)c(=O)n2c1,-1.4,-4.7,0.8,6.7,2.2,u,-0.3,6.3
Cc1[nH]nc2c1C(C1CC=CCC1)C(C#N)=C(N)O2 (configuration not stated),-5.2,-1.4,0.3,x,0.5,x,x,5.3
Cn1c(SCC(=O)N2CCN(c3cccc(Cl)c3)CC2)nnc1-c1ccncc1,-4.4,-3.9,0.0,-9.8,1.4,5.0,-0.2,4.6
CCOC(=O)c1c(C)oc2cc(Br)c(OC(C)C(=O)OCC)cc12 (configuration not stated),-2.6,-2.5,-0.2,-4.0,6.1,15.9,11.3,3.9
O=C(COC(=O)c1ccc(Br)o1)Nc1cccc(S(=O)(=O)N2CCCCCC2)c1,-10.5,1.4,-0.3,-3.7,-0.6,1.9,-1.4,1.8
CC(Sc1nnnn1C)C(=O)NC1CCCc2ccccc21 (configuration not stated),-6.6,3.5,1.2,-3.1,2.8,-12.1,0.7,-0.6
COc1ccc(CC(=O)Nc2cc(C)ccc2O)cc1OC,1.1,5.9,0.5,-7.0,-9.8,-0.9,0.5,2.2
O=C(NCCCN1CCCC1=O)C1CCN(S(=O)(=O)c2ccc(F)cc2)CC1,-4.3,-0.4,0.1,x,1.2,x,x,1.0
O=C(NC12CC3CC(CC(C3)C1)C2)c1ccc(COc2ccc(Cl)cc2[N+](=O)[O-])o1,5.2,5.7,-0.4,x,4.8,x,x,1.1
NCCn1c(-c2ccccc2)cc(C(=O)O)c1-c1ccccc1F,7.1,20.6,0.0,-28.0,-3.2,-19.4,-4.5,5.2
CCn1c(CSCc2ccc(Cl)cc2)nnc1SCC(=O)Nc1cccc(C(=O)O)c1,-3.5,-10.9,u,x,-0.6,19.4,2.0,5.4
Cc1ccc2c(c1)[nH]c1c(=O)n(CCN3CCNCC3)cnc12,x,-13.8,x,-13.4,x,-0.2,0.0,0.5
COC(Cn1cc(C)c(=O)[nH]c1=O)OC,0.1,-3.1,-0.1,-7.0,-4.9,-2.0,1.5,3.0
Cc1c(NC(=O)C(C)Oc2ccc(Br)cc2)c(=O)n(-c2ccccc2)n1C (configuration not stated),2.5,-16.8,0.1,x,-0.2,x,x,1.3
CCc1ccc(NC(=O)CSCc2nc(N)nc(Nc3ccccc3CC)n2)cc1,-6.9,-9.1,0.9,-24.9,-2.1,24.6,-4.3,2.8
COc1ccc(S(=O)(=O)N2C3CCC2CC(NC(=O)NC2CCCCC2)C3)cc1 (configuration not stated),6.0,-11.1,1.6,-7.0,5.8,-8.7,-1.1,0.7
CCOc1ccc(-n2c(SCC(=O)N3CCc4ccccc43)nnc2-c2c[nH]c3ccccc23)cc1,-3.5,-4.0,0.0,4.9,-4.5,4.5,-3.6,7.5
CCCN1Cc2cccc(C(=O)Nc3ccc(-c4nc5ccccc5[nH]4)cc3)c2C1=O,0.4,-7.4,1.6,7.9,1.9,-1.8,1.0,-47.7
COc1ccccc1NC(=S)N1CCN(C/C=C/c2ccccc2)CC1,-1.7,-3.5,0.1,12.8,-3.7,-4.1,1.5,-0.6
COc1ccccc1NC(=S)NC(=O)C1CC1,-6.8,-4.2,-0.4,-5.7,1.1,4.4,-3.9,1.1
O=C(O)CC(c1cccc2ccccc12)n1cccc1 (configuration not stated),-12.2,6.9,-0.8,-4.9,5.0,-1.5,-1.6,-1.8
O=C(c1ccoc1)N1CCC2(CC1)Oc1ccc(F)cc1C(=O)C21CC(c2ccccc2)=NO1 (configuration not stated),8.6,11.7,0.3,-2.2,-1.1,92.0*,1.2,-0.7
O=C(c1cc2c(=O)n3ccccc3nc2s1)N1CCc2ccccc2C1,2.3,x,-0.7,7.2,x,26.5,-0.6,x
CCc1ccc(NSc2ccccc2[N+](=O)[O-])cc1,11.1,-6.6,0.4,-0.7,-1.0,-4.7,-0.2,6.7
Cc1cccc(NC(=O)COC(=O)c2ccc([N+](=O)[O-])o2)c1C,-6.7,-0.3,-0.3,13.8,-1.8,25.0,0.2,8.4
CCOC(=O)CCNC(=O)N1CCCC(N(C)CCc2ccc(OC)c(OC)c2)C1 (configuration not stated),x,-2.1,0.5,3.3,3.5,3.8,-4.2,2.7
O=C(N/N=C/c1ccc2c(c1)OCO2)C(=O)Nc1ccc2ccccc2c1,-3.5,x,-0.1,-14.8,-1.9,0.9,-0.1,x
CC1(C)Cc2c(sc(NC(=O)C(=O)NCCCN3CCOCC3)c2C(N)=O)CO1,-4.1,6.2,-0.4,-1.1,-1.0,23.7,0.2,6.3
Cc1ccc(OCCN2C(=O)C(=O)c3cc(C)ccc32)cc1,14.6,36.1,2.5,33.0,-0.6,-1.6,-0.8,1.3
CCOC(=O)C1=C(C)N(C)C(C)=C(C(=O)OCC)C1c1ccc(C(=O)OC)cc1,3.9,-5.4,0.8,17.4,6.9,-12.1,6.6,-1.0
CCOC(=O)C1CCCCN1Cc1ccc(OC)c(OC)c1 (configuration not stated),-9.2,-4.4,0.0,-5.4,4.2,1.2,3.2,0.3
O=C1c2ccccc2NC(c2ccco2)N1O (configuration not stated),-1.9,-4.9,0.7,-14.4,2.9,26.1,-2.7,-2.3
CC12CCC3c4ccc(O)cc4CCC3C1CCC2=O (configuration not stated),-6.7,-7.6,2.6,x,-0.1,x,x,3.4
O=S(=O)(Cc1ccccc1)N1CCCC(c2nc(-c3ccc(F)cc3)no2)C1 (configuration not stated),1.3,1.1,0.4,-6.7,3.3,3.9,u,3.0
O=C(C1CCCN(Cc2ccccc2Br)C1)N1CCCCC1 (configuration not stated),2.6,-3.2,1.0,22.3,1.6,-24.4,0.0,0.8
O=C(Nc1ccc(Br)cc1Cl)N1CCOCC1,-0.1,-3.0,1.1,-7.9,-2.3,-11.0,1.0,-0.3
CC1=C(C)CC(C(=O)N2CCN(C/C=C/c3ccccc3)CC2)C(C(=O)O)C1 (configuration not stated),-9.8,2.0,0.3,-16.3,-2.3,0.1,0.7,3.3
O=C(Nc1cccc(NC(=O)c2cncc(Br)c2)c1)c1cncc(Br)c1,6.9,7.4,0.0,-4.4,2.0,2.5,8.1,-2.2
COc1ccc(NC(=O)CCOc2ccccc2)c(OC)c1,7.1,-1.9,-0.5,-9.2,1.6,-5.6,u,-1.5
CCNC(=S)Nc1ccc(NC(=O)c2ccccc2O)cc1,-6.6,-1.2,2.8,-5.3,0.2,-4.9,u,-17.8
O=C(NCCOc1ccccc1Cl)c1ncn[nH]1,2.2,2.8,-0.9,-6.3,-5.9,-33.1,2.4,-2.8
O=C(Nc1ncccn1)c1ccc([N+](=O)[O-])cc1,-0.1,9.3,-1.0,4.7,1.0,-15.3,3.5,1.8
COc1ccccc1/C=C/CN1CCC(Oc2cc(C(=O)NC3CC3)ccc2OC)CC1,1.8,-5.0,0.0,22.7,-1.8,-25.2,-4.5,1.6
COC(=O)Cc1c(C)c2ccc(OCc3nn[nH]n3)c(C)c2oc1=O,-3.6,5.4,0.4,-12.4,2.9,4.4,-3.5,-298.0
COc1ccccc1CNC(=O)Cn1nnnc1CN(C)C(C)C,0.4,8.7,0.1,-25.4,-5.0,-4.7,-3.4,1.9
Cc1ccc(C(=O)O)cc1NCc1ccncc1,4.3,-1.0,0.7,-6.3,0.6,-10.6,8.1,4.2

# The list goes on.
canonical_smiles,Beta apoptosis,B2AR ag,Bfl-1 A1 inh,T cruzi inh,LANA-H2A inh,Calb FLC,RanGTP-Imp inh,UCH37 DUB inh
N#Cc1ccc(N=c2ssnc2Cl)cc1,2.5&-0.2,3.8&1.6,-2.4&-0.8,-14.6,-5.7&0.1,-14.6,-0.5,6.2&6.9
O=C(O)c1ccc(S(=O)(=O)NC2CCCc3ccccc32)cc1 (configuration not stated),-0.9,-0.8,1.1,-28.4,0.8,u,1.1,-6.5
CN(C)/C=N/S(=O)(=O)c1ccc(Cl)c(Cl)c1,5.9,3.1,-0.2,3.6,-5.0,-15.6,0.4,x
C/C(=N\NC(=O)c1ccc([N+](=O)[O-])c(C)c1)c1ccccc1Cl,4.1,1.3,0.9,12.9,4.2,4.3,-2.6,x
CCN(CC)CCNC(=O)C1CCCCN1S(=O)(=O)c1cccc([N+](=O)[O-])c1 (configuration not stated),-3.7,-3.1,0.4,16.1,0.7,-13.3,1.5,0.3
CC(C)NC(=O)c1ccc(COCC(F)(F)C(F)F)cc1,-4.8,-12.9,0.2,-0.8,-0.6,-16.9,3.2,2.8
COc1ccc(-c2nnc3ccc(SC(C(C)=O)C(C)=O)nn23)cc1OC,3.8,0.5,0.6,7.6,-0.6,7.4,3.7,4.2
c1cnc(N2CC[N+]3(CCCC3)CC2)nc1,-8.5,-5.5,0.8,-7.3,1.3,-9.8,u,-1.1
CCOc1ccc2oc(C(=O)N(C)CCc3ccc(OC)c(OC)c3)c(C)c2c1,2.0,-4.6,0.4,x,2.4,x,x,-1.2
Cc1c(C(=O)N2CCN(c3ccccn3)CC2)oc2c(F)cccc12,x,-13.8,1.0,-8.7,0.5,2.1,4.4,3.4
O=C(CSc1ncn[nH]1)N/N=C/c1ccc(Br)cc1,-2.6,3.8,-0.1,-14.2,3.1,-1.8,2.2,x
O=C(NCCOc1ccc(F)cc1)C1CCC(=O)N(CCc2ccccn2)C1 (configuration not stated),-2.0,-5.1,0.0,-5.9,-1.6,-1.9,0.7,3.7
CCc1ccc2c(COC(=O)C3CSC4(C)CCC(=O)N34)cc(=O)oc2c1 (configuration not stated),-14.5,7.1,-0.6,x,-0.2,x,x,0.7
